RVFV N-RNA FP = RVFV nucleocapsid-RNA interaction inhibition; RVFV N-RNA binding, fluorescence polarization; stronger effect = lower value; % bound, % (test concentration not listed); 0.1% of 20,000 active; AID 651828;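 active means between 0 and 58% in either replicate with normal brightness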;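 further: 100 nL library stock added to about 12 µL; 100% = protein and probe without compound and 0% = probe alone; numbers are from one replicate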
Target sequence (P21700 whole entry, looked up): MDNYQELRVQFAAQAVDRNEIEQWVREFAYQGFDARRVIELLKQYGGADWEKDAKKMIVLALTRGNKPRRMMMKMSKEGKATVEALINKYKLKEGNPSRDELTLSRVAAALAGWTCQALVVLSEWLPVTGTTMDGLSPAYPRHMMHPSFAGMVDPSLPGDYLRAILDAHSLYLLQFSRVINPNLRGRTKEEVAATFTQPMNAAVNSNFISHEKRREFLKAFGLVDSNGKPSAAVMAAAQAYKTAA
* = called active by the depositor; & = joins results of further samples.

CC1CC(C)CN(C(=O)CS(=O)(=O)c2ccccc2)C1 (stereo not drawn) was read as RVFV N-RNA FP 93.
`O=C1c2ccccc2C(=O)N1CCCOc1ccccc1` gave RVFV N-RNA FP 102.
For CCCC(C)c1c(O)n(CC)c(=S)[nH]c1=O (stereo not drawn) the results were RVFV N-RNA FP 99.
Screening O=C1CCC(=O)N1CN1CCOCC1 returned RVFV N-RNA FP 102.
Screening Cc1[nH]nc(-c2ccc(O)c(C)c2O)c1Oc1ccccc1 returned RVFV N-RNA FP 96.
For O=C(/C=C/c1ccco1)NC(=S)Nc1ccccc1C(F)(F)F the results were RVFV N-RNA FP 104.
`CC(C)NC(=O)c1ccccc1NC(=O)CCS(=O)(=O)Cc1ccccc1` gave RVFV N-RNA FP 93.
`CC(=O)n1c2ccccc2c2c1c1ccccc1n2C` gave RVFV N-RNA FP 91.
Fc1ccccc1Nc1ncnc2c1nnn2Cc1ccccc1 was read as RVFV N-RNA FP 105.
`Cc1cc(=O)[nH]c(Nc2ccc(O)cc2)n1` gave RVFV N-RNA FP 97.
`COC(=O)c1ccc(N=Nc2sc3ccccc3c2O)cc1` gave RVFV N-RNA FP 92.
For O/N=C(\C=N\O)C12CC3CC(CC(C3)C1)C2 the results were RVFV N-RNA FP 95.
Cc1ccc(S(=O)(=O)NCC(c2cccnc2)N(C)C)cc1 (stereo not drawn) was read as RVFV N-RNA FP 95.
For O=C(O)CCc1nnc(SCc2ccc(Cl)cc2Cl)[nH]c1=O the results were RVFV N-RNA FP 94.
COc1ccc(-c2nnc3sc(CN4CCCCC4)cn23)cc1 was read as RVFV N-RNA FP 90.
`O=C(Nc1ccc(-c2cn3cccnc3n2)cc1)C1CCCC1` gave RVFV N-RNA FP 85.
For CCN(CC)C(=O)COc1ccc(Br)cc1Cl the results were RVFV N-RNA FP 101.
CN1C(=O)c2ccc(-c3nc4ccccc4s3)cc2C1=O was read as RVFV N-RNA FP 109.
Screening CSc1ccc(S(=O)(=O)NCc2ccccc2)cc1 returned RVFV N-RNA FP 100.
Screening CCC(Sc1nncn1C)C(=O)Nc1sc2c(c1C#N)CCCC2 (stereo not drawn) returned RVFV N-RNA FP 95.
`NC(=O)COc1ccc(C2c3c(oc4ccccc4c3=O)C(=O)N2CCCO)cc1` (stereo not drawn) gave RVFV N-RNA FP 100.
O=C1CCC(=O)N1CCSSCCN1C(=O)CCC1=O was read as RVFV N-RNA FP 99.
For C#CCN1CCS(=O)(=O)CC1 the results were RVFV N-RNA FP 102.
CS(=O)(=NC=C(C#N)C#N)c1ccc(Cl)cc1 (stereo not drawn) was read as RVFV N-RNA FP 95.
CC(SCc1ccccc1)C(=O)NC1CCCC1 (stereo not drawn) was read as RVFV N-RNA FP 92.
O=C(C1=C(Nc2ccc(O)cc2)CCCC1)C(F)(F)F was read as RVFV N-RNA FP 95.
`Cc1ccc(N2C(=O)CC(N3CCC(NS(=O)(=O)c4ccccc4)CC3)C2=O)cc1` (stereo not drawn) gave RVFV N-RNA FP 99.
O=C(CSc1nccc(=O)[nH]1)N1CCOCC1 was read as RVFV N-RNA FP 107.
Screening CC(C)n1cnc2c(NCc3ccccc3O)nc(NCCCO)nc21 returned RVFV N-RNA FP 102.
Cc1nn2c(N)c(C#N)cnc2c1C(N)=O was read as RVFV N-RNA FP 94.
CCOC(=O)c1cnn(-c2ncc(C(=O)OC)c(C(F)(F)F)n2)c1C(F)(F)F was read as RVFV N-RNA FP 88.
S=c1nc[nH]c2nc[nH]c12 was read as RVFV N-RNA FP 88.
For CNCC1C(C)C=C(C)CC1C (stereo not drawn) the results were RVFV N-RNA FP 89.
`O=S(=O)(Cc1ccccc1Cl)NC1CCCCC1` gave RVFV N-RNA FP 98.
For Brc1cccc(-c2cn3ccccc3n2)c1 the results were RVFV N-RNA FP 96.
`CCCCc1ccc(NS(=O)(=O)CC(C)C)cc1` gave RVFV N-RNA FP 93.
`COc1cccc(/C=N/NC(=O)C2CCCN(C(=S)NNC3CC4C=CC3C4)CC2)c1O` (stereo not drawn) gave RVFV N-RNA FP 110.
For NC(=O)C1CCCN(Cc2ccc3ccccc3c2)C1 (stereo not drawn) the results were RVFV N-RNA FP 90.
For Cc1ccc(I)c(C(N)=O)c1 the results were RVFV N-RNA FP 88.
For Cc1c(NC(=O)c2ccc3c(c2)C(=O)N(C)C3=O)cccc1C(=O)O the results were RVFV N-RNA FP 88.

Next section, overlapping the part above by 7 compounds.
`O=S(=O)(Cc1ccccc1Cl)NC1CCCCC1` gave RVFV N-RNA FP 98.
For Brc1cccc(-c2cn3ccccc3n2)c1 the results were RVFV N-RNA FP 96.
`CCCCc1ccc(NS(=O)(=O)CC(C)C)cc1` gave RVFV N-RNA FP 93.
`COc1cccc(/C=N/NC(=O)C2CCCN(C(=S)NNC3CC4C=CC3C4)CC2)c1O` (stereo not drawn) gave RVFV N-RNA FP 110.
For NC(=O)C1CCCN(Cc2ccc3ccccc3c2)C1 (stereo not drawn) the results were RVFV N-RNA FP 90.
For Cc1ccc(I)c(C(N)=O)c1 the results were RVFV N-RNA FP 88.
For Cc1c(NC(=O)c2ccc3c(c2)C(=O)N(C)C3=O)cccc1C(=O)O the results were RVFV N-RNA FP 88.
`COc1ccc(C)cc1NC(=S)NCc1cnn(C)c1` gave RVFV N-RNA FP 100.
CCN1C(=O)/C(=C/c2ccccc2)SC1=Nc1cccc(C(=O)O)c1 was read as RVFV N-RNA FP 101.
Screening Cc1nc2ccccc2n(C)c1=O returned RVFV N-RNA FP 107.
Cc1ccc(C)n1-c1ncccc1OCc1nnc(-c2ccc3ccccc3c2)o1 was read as RVFV N-RNA FP 95.
For CC1=NN(C(C)(C)C)C(=O)C1 the results were RVFV N-RNA FP 95.
`COC(=O)c1ccccc1-c1cc(C)no1` gave RVFV N-RNA FP 95.
For N=c1ccn2c(n1)OC1[C@@H](O)[C@@H](CO)O[C@H]12 (stereo partly drawn) the results were RVFV N-RNA FP 92.
CCOC(=O)c1sc(Nc2ccccn2)nc1C was read as RVFV N-RNA FP 86.
Screening Cc1c(O)c(=O)ccn1C returned RVFV N-RNA FP 104&102.
`Cc1cc(=O)oc2c1ccc1occ(NO)c12` gave RVFV N-RNA FP 94.
Screening CCC(Oc1ccccc1)C(=O)N1CCN(c2ccc(OC)cc2)CC1 (stereo not drawn) returned RVFV N-RNA FP 97.
For COc1ccc(S(=O)(=O)N2CCN(C(=S)NCC3CCCO3)CC2)cc1OC (stereo not drawn) the results were RVFV N-RNA FP 110.
`CC(O)c1cccc2ccccc12` (stereo not drawn) gave RVFV N-RNA FP 97.
O=C(NC1CCCCC1)N1CCn2cccc2C1c1cccnc1 (stereo not drawn) was read as RVFV N-RNA FP 91.
Cc1cc(C)n(-c2ccc(C(=O)Nc3ccccc3)cc2)n1 was read as RVFV N-RNA FP 100.
For O=C(Nc1ccccc1)C1C(=O)NC23CCCCC2C1c1ccccc1O3 (stereo not drawn) the results were RVFV N-RNA FP 95.
`CO/N=C/c1nc2ccccc2s1` gave RVFV N-RNA FP 91.
COc1ccccc1CNC(=O)c1ccccc1SC was read as RVFV N-RNA FP 98.
Screening CC1=CC(=O)C(CCOCCC2=CC(=O)C(C)=CC2=O)=CC1=O returned RVFV N-RNA FP 95.
`CCC(C)N(C(=O)c1cc(Cl)ccc1OC)C(C)CC` (stereo not drawn) gave RVFV N-RNA FP 94.
Screening CC(C)n1c(SCCC(=O)O)nc2ccccc21 returned RVFV N-RNA FP 97.
Screening Cc1ccc(SC(=O)c2ccco2)cc1 returned RVFV N-RNA FP 86.
`CSc1nc2[nH]ncc2c(=O)[nH]1` gave RVFV N-RNA FP 101.
For O=c1c(O)c(-c2ccc(O)cc2O)oc2cc(O)cc(O)c12 the results were RVFV N-RNA FP 67.
O=C(CC(c1ccccc1)c1cc(Br)ccc1O)N1CCCC1 (stereo not drawn) was read as RVFV N-RNA FP 90.
For C=C(C)CN1CC[C@]23c4c5ccc(O)c4O[C@H]2c2[nH]c4ccccc4c2C[C@@]3(O)C1C5 the results were RVFV N-RNA FP 98.
COc1ccc(C(=O)CSc2ccc3nnc(-c4ccccn4)n3n2)cc1 was read as RVFV N-RNA FP 96.
Screening CN(N=O)c1ccc(O)c(O)c1 returned RVFV N-RNA FP 80.
CCOC(=O)c1sc(=S)n(Cc2ccco2)c1C was read as RVFV N-RNA FP 101.
Nc1nc2[nH]c(=O)cnc2c(=O)[nH]1 was read as RVFV N-RNA FP 95.
`Cc1ccc(S(=O)(=O)N2CCC3(CC2)OCCO3)cc1` gave RVFV N-RNA FP 100.
For CCCc1cc(=O)n(CC(=O)NCc2ccccc2Cl)c(-n2nc(C)cc2C)n1 the results were RVFV N-RNA FP 92.
For CCCC1=C(C(=O)OCC)C2(C(=O)N1)C(C(=O)OC(C)C)=C(N)Oc1ccccc12 (stereo not drawn) the results were RVFV N-RNA FP 93.
`O=C(NCc1ccco1)N(c1ccccc1)c1ccccc1` gave RVFV N-RNA FP 100.
`COC(=O)c1ccccc1NC(=S)NC(=O)/C=C/c1ccco1` gave RVFV N-RNA FP 92.
`Cc1ccc(NCC(O)CSc2nc3c(cc2C#N)CCCC3)cc1` (stereo not drawn) gave RVFV N-RNA FP 87.
S=C(NCc1ccccc1)N1CCn2cccc2C1c1cccnc1 (stereo not drawn) was read as RVFV N-RNA FP 95.
`CNC(=O)COc1c(C)cc(SC)cc1C` gave RVFV N-RNA FP 98.
For O=C1CCc2cc(S(=O)(=O)NCC3CCCO3)cc3c2N1CC3 (stereo not drawn) the results were RVFV N-RNA FP 97.
`O=S(=O)(NCC1COc2ccccc2O1)c1ccc2c(c1)CCO2` (stereo not drawn) gave RVFV N-RNA FP 85.
For COc1ccc(OCCC(=O)N2CCN(c3ccccc3)CC2)cc1 the results were RVFV N-RNA FP 101.
Screening CC(C)n1cnc2c(NCc3ccccc3)nc(NCCCO)nc21 returned RVFV N-RNA FP 104.
Screening CC(=O)Nc1ccccc1OC(=O)c1cccc(C)c1 returned RVFV N-RNA FP 93.
O=C(Nc1ccccc1)OCCOc1ccccc1 was read as RVFV N-RNA FP 89.
`O=C(C1CCN(S(=O)(=O)c2ccccc2)CC1)N1CCc2ccccc21` gave RVFV N-RNA FP 92.
Screening O=S(=O)(O)c1cc(I)c(O)c2ncccc12 returned RVFV N-RNA FP 101.
Screening CNCCCCOc1ccccc1Cc1ccccc1 returned RVFV N-RNA FP 104.
CC1(C)CC(=O)C2=C(C1)NC(Nc1nc3ccccc3o1)=NC21CCCCC1 was read as RVFV N-RNA FP 97.
For OCCN1CCN(CCCN2c3ccccc3Sc3ccc(C(F)(F)F)cc32)CC1 the results were RVFV N-RNA FP 97&102&96.
`Cc1ccoc1C(=O)Nc1cccc(Oc2ccccc2)c1` gave RVFV N-RNA FP 90.
For Cc1ccc(-n2[nH]c(C)c(C=O)c2=O)cc1C the results were RVFV N-RNA FP 97.
Screening O=C(CN1C(=O)S/C(=C\c2ccc(O)cc2)C1=O)c1ccccc1 returned RVFV N-RNA FP 106.
For Cn1nccc1/C=C(/C#N)S(=O)(=O)c1ccccc1 the results were RVFV N-RNA FP 91.
Screening N/C(=N\OC(=O)c1ccccc1)c1ccc2c(c1)CCO2 returned RVFV N-RNA FP 98.
For CCOC(=O)N1CCc2c(sc3nc4n(c(=O)c23)N=C(c2ccc(OC)cc2)CS4)C1 the results were RVFV N-RNA FP 95.
COCc1cc(C)nc2sc(C(=O)N3CCc4ccccc43)c(N)c12 was read as RVFV N-RNA FP 98.
CN(C)/N=N/c1nc[nH]c1C(N)=O was read as RVFV N-RNA FP 106.
Screening CCc1ccc(Cc2cnc(NC(=O)C3=NCCN3)s2)cc1 returned RVFV N-RNA FP 96.
`CCn1c(O)c(N=NC(=O)c2ccccc2O)c2ccccc21` gave RVFV N-RNA FP 94.
Screening CC(=O)N1CCN(C(=O)C23CC4CC(C)(CC(C)(C4)C2)C3)CC1 returned RVFV N-RNA FP 100.
CC(C)(C)/C=N/NC(=O)c1nc(-c2c(F)cccc2Cl)no1 was read as RVFV N-RNA FP 92.
Screening Cn1c2c(c(=O)[nH]c1=O)C(C(F)(F)F)(C(F)(F)F)NC(=O)N2 returned RVFV N-RNA FP 108.
O=C1NC(=O)c2c1c1c3ccccc3[nH]c1c1[nH]c3ccccc3c21 was read as RVFV N-RNA FP 102.
For COc1cccc(-c2nn(-c3ccccc3)cc2C(=O)n2nnc3ccccc32)c1 the results were RVFV N-RNA FP 98.
O=C(NC1CCCCC1)N1CCN(C2CCCCC2)CC1 was read as RVFV N-RNA FP 93.
Screening CCOc1ccc(N2C(=O)CC(Sc3ncccc3C(=O)O)C2=O)cc1 (stereo not drawn) returned RVFV N-RNA FP 83.
Screening C=CCn1c(C(O)c2ccccc2)n[nH]c1=S (stereo not drawn) returned RVFV N-RNA FP 99.
CCOC(=O)c1ccccc1NC(=O)CSc1nc2c(oc3ccccc32)c(=O)n1C1CCCC1 was read as RVFV N-RNA FP 96.
`NC(=O)COc1c(F)cc(SCCNS(=O)(=O)c2ccccc2)cc1F` gave RVFV N-RNA FP 104.
Screening N#CCc1ccc(NC(=O)C2CCCCC2)cc1 returned RVFV N-RNA FP 100.
For CCN(CC)C(=O)c1sc2ccccc2c1Cl the results were RVFV N-RNA FP 99.
Screening CCN1CCCCCC1CO (stereo not drawn) returned RVFV N-RNA FP 89.
Nc1c(Br)cc(Br)cc1Br was read as RVFV N-RNA FP 97.
For CCN1C(=O)CC(N2CCC(Nc3ccc(OC)cc3)CC2)C1=O (stereo not drawn) the results were RVFV N-RNA FP 101.

Ordered by SMILES length (high to low): three of the compounds above
COc1ccc(C(=O)CSc2ccc3nnc(-c4ccccn4)n3n2)cc1 was read as RVFV N-RNA FP 96.
CC(SCc1ccccc1)C(=O)NC1CCCC1 (stereo not drawn) was read as RVFV N-RNA FP 92.
For CC1=NN(C(C)(C)C)C(=O)C1 the results were RVFV N-RNA FP 95.

This is a subset (hit frequency here may not be typical).
